Assay outcomes (PubChem)
POLK inh: inhibitors of human DNA polymerase kappa. hit rate 0.53% among 400,000. Q9UBT6. purified Pol kappa, fluorescent DNA synthesis assay, 10 min. AID 588579. Potency, µM (highest dose often 107 µM), for the others: at the top dose activity, negative = inhibition, actives largely listed as inhibitors; further: on the % scale 0 is the no-effect control and ±100 the full control effect
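First, compounds were pin-transferred onto 10 nM Pol kappa. After 15 min at room temperature, substrate was added to 50 nM final. Fluorescence was then measured kinetically at 0 and 10 min.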
POLH inh: inhibitors of human DNA polymerase eta; Q9Y253; Potency, µM (highest dose often 114 µM), for inactives: top-dose activity change, negative = inhibition, hits mostly inhibitors; recombinant Pol eta, fluorescent DNA replication assay; hit rate 1.2% among 390,000; further: on the % scale 0 is the no-effect control and ±100 the full control effect
Target sequence (Q9Y253 whole entry, looked up): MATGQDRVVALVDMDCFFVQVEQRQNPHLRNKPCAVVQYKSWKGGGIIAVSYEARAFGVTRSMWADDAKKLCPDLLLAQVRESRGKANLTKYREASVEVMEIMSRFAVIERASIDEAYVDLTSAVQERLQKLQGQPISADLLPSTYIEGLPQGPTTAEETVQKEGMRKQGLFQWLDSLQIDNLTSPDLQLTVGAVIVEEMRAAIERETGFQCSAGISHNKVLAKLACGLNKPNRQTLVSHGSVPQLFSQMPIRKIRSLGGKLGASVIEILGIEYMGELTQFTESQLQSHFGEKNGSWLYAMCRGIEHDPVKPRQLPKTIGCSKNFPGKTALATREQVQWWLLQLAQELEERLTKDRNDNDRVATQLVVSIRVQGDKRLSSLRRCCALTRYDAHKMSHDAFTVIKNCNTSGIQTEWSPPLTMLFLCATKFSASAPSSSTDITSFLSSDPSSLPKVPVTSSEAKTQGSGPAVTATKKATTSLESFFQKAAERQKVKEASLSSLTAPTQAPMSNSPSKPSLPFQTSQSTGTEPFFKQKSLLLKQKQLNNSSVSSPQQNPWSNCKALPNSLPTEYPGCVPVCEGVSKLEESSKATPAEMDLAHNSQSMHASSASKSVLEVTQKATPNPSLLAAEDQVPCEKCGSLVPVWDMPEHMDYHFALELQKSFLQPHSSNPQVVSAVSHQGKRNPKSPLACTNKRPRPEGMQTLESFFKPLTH
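Pol eta (10 nM) was preincubated with compounds for 15 min at room temperature, after which fluorescent replication substrate (50 nM final) was added to start the reaction. Fluorescence was read kinetically at 0 and 10 min.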
G9a inh: G9a (human) methyltransferase inhibition | Potency, µM (series often up to 102 µM), without a hit: at the top dose activity, negative = inhibition, usual class: inhibitors | hit rate 8.8% among 350,000 | G9a H3K9 monomethylation, AlphaScreen, 2 h; further: on the % scale 0 is the no-effect control and ±100 the full control effect; nearly all actives have a fitted effect of over 75% in size
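Signal arises when biotinylated H3K9 peptide, once monomethylated, bridges streptavidin donor and antibody-captured acceptor beads. Enzyme at 20 nM was preincubated 15 min with test compounds; peptide 500 nM and SAM 20 uM then reacted for 2 h.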
BLM helicase inh: Bloom syndrome helicase (human) inhibition. AID 2528. Potency, µM (doses to about 56.1 µM), inactives show at the top dose activity change, negative = inhibition, most hits filed as inhibitors. P54132. recombinant BLM DNA unwinding, fluorescence dequenching. hit rate 0.2% among 350,000;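 further: plate controls were vehicle for no effect and no enzyme for full effect; nearly all actives have a fitted effect of over 35% in size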
APEX1 inh: APE1 (human) endonuclease inhibition; P27695; recombinant APE1, TAMRA/BHQ-2 abasic DNA cleavage fluorescence; Potency, µM (series often up to 65.8 µM), without a hit: at the highest dose activity change, negative = inhibition, most hits filed as inhibitors; hit rate 0.35% among 350,000; AID 2517;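 further: plate controls were vehicle for no effect and reference inhibitor for full effect; nearly all actives have a fitted effect of over 55% in size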
Target sequence (P27695 whole entry, looked up): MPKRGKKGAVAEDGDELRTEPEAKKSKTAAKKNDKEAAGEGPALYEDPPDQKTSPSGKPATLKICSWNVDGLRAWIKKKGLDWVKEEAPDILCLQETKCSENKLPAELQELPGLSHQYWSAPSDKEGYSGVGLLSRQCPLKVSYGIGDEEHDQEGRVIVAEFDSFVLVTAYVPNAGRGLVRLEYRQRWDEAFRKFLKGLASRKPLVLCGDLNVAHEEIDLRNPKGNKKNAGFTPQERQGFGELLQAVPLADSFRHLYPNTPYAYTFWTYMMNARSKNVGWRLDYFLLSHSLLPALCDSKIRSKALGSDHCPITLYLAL
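Kinetic fluorescence read (525 ex/598 em nm, three reads 60 s apart) of AP-site incision; signal = third minus first read. Enzyme 0.75 nM, dual-labelled THF duplex 50 nM, compound preincubation 15 min RT.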
POLI inh: DNA polymerase iota (human) inhibition | Q9UNA4 | Pol iota fluorescent replication assay, 10 min | Potency, µM (titrated, usually from 115 µM), inactives show at the highest dose activity, negative = inhibition, hits mostly inhibitors | hit rate 1% among 390,000 | AID 588590
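Fluorescent replication assay read twice, at 0 min and 10 min after adding 50 nM (final) substrate. Enzyme (10 nM) and compounds were first incubated 15 min at room temperature; enzyme-free buffer wells were negative controls.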
Pol beta inh: inhibitors of human DNA polymerase beta; P06746; Pol beta primer extension/strand displacement, fluorescence kinetic; Potency, µM (top dose mostly 114 µM), for the others: at the top dose activity change, negative = inhibition, actives largely listed as inhibitors; hit rate 1.3% among 340,000; AID 485314; further: on the % scale 0 is the no-effect control and ±100 the full control effect
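Human Pol beta at 10 nM; strand-displacement substrate 50 nM final. Compound exposure 15 min at room temperature before start, reaction 10 min at room temperature.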
Apoferritin bind: candidate novel general anesthetic via apoferritin binding. P02791. apoferritin/1-aminoanthracene competitive binding, fluorescence. Potency, µM (doses to about 77.5 µM), for inactives: at the highest dose activity change, negative = displacement, most hits filed as inhibitors. hit rate 0.074% among 350,000. AID 485281; further: on the % scale 0 is the no-effect control and ±100 the full control effect; nearly all actives have a fitted effect of over 20% in size
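Read-out: endpoint 1-AMA fluorescence, excitation 380 nm and emission 535 nm, after compounds sit 10 min at room temperature with 10 uM horse-spleen apoferritin in 50% saturated 1-AMA/PBS. Values come from four-parameter Hill fits.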
Active calls of the source: *; ? = inconclusive; / = no result given; [ ] = dose if it differs, or a comment. The call rests on the fitted dose curve; in most records, active means well fitted curve in the direction sought with a large enough effect; inconclusive means small, poorly fitted or top-dose-only effect, or another doubt; inactive means no such curve, though single readings can be large; an effect the other way counts as inactive or inconclusive. Potency means the concentration at half of the fitted maximal effect. An excerpt. The share of hits here may be higher or lower than overall.

POLH inh,POLI inh,APEX1 inh,Pol beta inh,POLK inh,G9a inh,Apoferritin bind,BLM helicase inh,SMILES
-3.2%,21.9%,3.4%,1.8%,-26.4%,?,3.8%,-3.9%,CCOc1ccc(OCC(O)CN2CCN(S(=O)(=O)c3cccc(C(F)(F)F)c3)CC2)cc1 (stereo unspecified)
?,15.9%,-0.2%,-0.9%,-24.4%,10µM*,-12.7%,-3.3%,CCCCN(C)C(=O)C1CCN(C/C(C)=C/c2ccccc2)CC1
-13.5%,20.7%,39.3%,-1.7%,-3.6%,4.6%,-3.9%,-6.9%,COc1ccc(CCNC(=O)CCCn2ncn3c(cc4occc43)c2=O)c(OC)c1
-5.6%,-4.4%,-10.9%,-15.8%,-12.1%,/,-3.4%,1.7%,CCOC(=O)N1CCN(S(=O)(=O)c2ccc(OC)cc2)CC1
5.1%,5.9%,-4.5%,27.3%,-13.3%,?,1.7%,-9.8%,Cc1c(-c2csc(N)n2)c2ccccc2n1C
-11.3%,-0.8%,11.4%,18.8%,-2.0%,-6.4%,-9.6%,-2.1%,COc1ccc(OC)c(NC(=O)CSc2ccc3nnc(-c4ccccn4)n3n2)c1
-17.7%,-16.6%,30.9%,-22.1%,-4.2%,-7.8%[59 µM],-3.2%,-4.2%,C=CCN(c1ccccc1)S(=O)(=O)c1cc2c(cc1C)N(C)CCO2
?,?,-6.6%,35.3%[activator],-8.2%,?,-9.6%,0.9%,CCCCNC(=O)C1CCN(Cc2ccccn2)CC1
?,?,-9.8%,?,?,22.4µM*,-19.1%,-6.5%,C=CCSC1=N/C(=C\c2ccc(C)o2)C(=O)S1
-21.0%,-11.0%,/,-22.8%,-18.7%,?,5.9%,-20.4%,N#Cc1nc(COc2ccccc2Cl)oc1NCCc1ccccc1
-6.8%,19.6%,2.8%,-15.9%,-6.9%,8.91µM*,-19.9%,-9.9%,CC/C(=N/Nc1ccccc1C)c1cnnc(SC)n1
-24.9%,24.5%,32.3%[activator],-1.1%,0.0%,?,-22.8%,-14.3%,COc1ccc(OC)c(NC(=O)C(=S)NC2CCCCC2)c1

Carrying on:
POLH inh,POLI inh,APEX1 inh,Pol beta inh,POLK inh,G9a inh,Apoferritin bind,BLM helicase inh,SMILES
-12.3%,-3.2%[58.9 µM],-4.3%,2.2%,-10.6%,39.8µM*,-21.9%,-4.0%,COc1ccc(NC(=O)CSc2nnc(Cc3cccn3C)n2CCc2ccccc2)cc1OC
/,/,17.1%,-17.0%,/,-38.0%,?,-8.2%,COC(=O)C1=C(C)NC(C)=C(C(=O)OCC2CCCO2)C1c1ccc(Cl)c([N+](=O)[O-])c1 (stereo unspecified)
-14.8%,2.7%,3.5%,-0.1%,-0.3%,?,-14.3%,-2.9%,c1ccc(-n2c(SCC3CCCCO3)nnc2-c2cccs2)cc1 (stereo unspecified)
50.1µM*,?,-11.3%,22.4µM*,89.1µM*,?,-23.4%,-20.8%,Cc1ccc(N(CC(O)COCc2ccco2)S(=O)(=O)c2ccc(C)cc2)cc1 (stereo unspecified)
3.3%,25.7%,20.8%,-12.3%,-6.9%,-3.3%,1.2%,2.1%,O=C(NCCCn1ccnc1)/C(=C\c1cccs1)NC(=O)c1cccs1
6.4%,-3.7%,-2.0%,-4.2%,6.3%,-40.9%,-8.6%,-0.6%,N#CCCN(CCC#N)S(=O)(=O)c1ccc(C(=O)Nc2nnc(C3=COCCO3)o2)cc1
-21.1%,12.1%,-6.7%,-0.1%,-13.6%,-15.1%,-5.5%,-6.9%,Cc1cccc(C)c1OCc1cc(C(=O)N2CCN(c3ccccc3)CC2C)no1 (stereo unspecified)
-3.9%,-1.9%,/,8.6%,0.8%,17.8%[59 µM],-11.6%,2.3%,CCOC(=O)c1c(NC(=O)CCCOc2ccc(C)cc2)sc2c1CCC(C)C2 (stereo unspecified)
-8.8%,1.2%,-7.3%,24.3%,-16.2%,?,-21.3%,1.0%,N#Cc1nc(Cc2ccccc2)oc1NCCc1ccccc1
-11.0%,16.0%,-7.4%,27.2%,-7.1%,12.6µM*,-7.9%,-0.1%,O=C(C1CCCN(Cc2ccncc2)C1)N1CCc2ccccc2C1 (stereo unspecified)
-9.1%,-4.6%,0.1%,4.5%,-8.5%,18.4%,-1.4%,-0.3%,Cc1ccccc1NC(=O)CSc1nnc(-c2ccccn2)o1
1.7%,-6.0%,/,5.2%,1.3%,14.1µM*,49.5%[activator],-11.0%,O=C(Nc1nnc(S(=O)(=O)N2CCCCC2)s1)c1ccc(F)cc1

A portion from further up, for reference:
POLH inh,POLI inh,APEX1 inh,Pol beta inh,POLK inh,G9a inh,Apoferritin bind,BLM helicase inh,SMILES
-12.3%,-3.2%[58.9 µM],-4.3%,2.2%,-10.6%,39.8µM*,-21.9%,-4.0%,COc1ccc(NC(=O)CSc2nnc(Cc3cccn3C)n2CCc2ccccc2)cc1OC
/,/,17.1%,-17.0%,/,-38.0%,?,-8.2%,COC(=O)C1=C(C)NC(C)=C(C(=O)OCC2CCCO2)C1c1ccc(Cl)c([N+](=O)[O-])c1 (stereo unspecified)
-14.8%,2.7%,3.5%,-0.1%,-0.3%,?,-14.3%,-2.9%,c1ccc(-n2c(SCC3CCCCO3)nnc2-c2cccs2)cc1 (stereo unspecified)
50.1µM*,?,-11.3%,22.4µM*,89.1µM*,?,-23.4%,-20.8%,Cc1ccc(N(CC(O)COCc2ccco2)S(=O)(=O)c2ccc(C)cc2)cc1 (stereo unspecified)
3.3%,25.7%,20.8%,-12.3%,-6.9%,-3.3%,1.2%,2.1%,O=C(NCCCn1ccnc1)/C(=C\c1cccs1)NC(=O)c1cccs1
6.4%,-3.7%,-2.0%,-4.2%,6.3%,-40.9%,-8.6%,-0.6%,N#CCCN(CCC#N)S(=O)(=O)c1ccc(C(=O)Nc2nnc(C3=COCCO3)o2)cc1
-21.1%,12.1%,-6.7%,-0.1%,-13.6%,-15.1%,-5.5%,-6.9%,Cc1cccc(C)c1OCc1cc(C(=O)N2CCN(c3ccccc3)CC2C)no1 (stereo unspecified)

Further compounds follow.
POLH inh,POLI inh,APEX1 inh,Pol beta inh,POLK inh,G9a inh,Apoferritin bind,BLM helicase inh,SMILES
-3.8%,-10.0%,-8.8%,/,-14.4%,8.3%[0.501 µM],/,/,C[C@H](NC(=O)c1[nH]cnc1C(=O)Nc1nccs1)c1ccccc1
-23.2%,14.4%,-0.7%,17.6%,-0.4%,28.2µM*,-5.0%,-0.1%,O=C(NCC1CCCO1)c1ccc(/C=N/O)nc1 (stereo unspecified)
-10.3%,22.8%,18.1%,6.8%,-5.1%,?,-19.0%,-16.2%,N#Cc1c(/N=C/c2cccs2)sc2c1CCC2
-17.0%,-13.8%,?,-16.9%,-2.5%,44.7µM*,3.4%,-3.7%,COc1ccccc1-n1cnnc1SCC(=O)c1cc(C)n(Cc2cccs2)c1C
-1.6%,6.3%,-3.9%,50.1%,1.0%,6.31µM*,1.3%,-1.7%,Clc1ccc(SCCOCCN2CCOCC2)cc1
-11.6%,16.1%,1.8%,-12.5%,-10.6%,15.8µM*,-19.1%,-5.0%,C/C(=N\N1CCN(Cc2ccccc2Cl)CC1)c1ccc([N+](=O)[O-])cc1
-18.4%,59.9%[activator],15.5%,-15.5%,-3.4%,-43.9%[59 µM],-19.3%,-9.1%,O=[N+]([O-])c1ccc(OCc2cnc(Cl)s2)c([N+](=O)[O-])c1
-7.6%,?,6.6%,-2.5%,-9.4%,-7.6%[59 µM],?,-7.0%,CN1C(=O)/C(=C/c2ccccc2Cl)Sc2ccc(C(=O)N3CCCC3)cc21
-6.5%,-0.7%,1.3%,0.5%,-5.9%,39.8µM*,?,-2.4%,COc1cccc(CN2CCSCC2)c1
?,?,0.5%,?,-41.7%,?,-15.6%,-19.3%,COC(=O)c1ccccc1NC(=O)C1CCCN(c2nnc(-n3cccc3)s2)C1 (stereo unspecified)
-10.6%,-7.5%,17.1%,6.8%[57.1 µM],-5.6%,10µM*,-17.6%,-20.7%,CCN1CCC2(CC1)N=C(c1ccc(F)cc1)C(=S)N2C(=O)c1ccc(C(C)(C)C)cc1
-0.8%,91.0%,2.7%,10.6%,-15.9%,/,-2.1%,-2.4%,CCOC(=O)N1CCN(Cc2nc(N)nc(Nc3ccc(Cl)cc3)n2)CC1

More records:
POLH inh,POLI inh,APEX1 inh,Pol beta inh,POLK inh,G9a inh,Apoferritin bind,BLM helicase inh,SMILES
-19.6%,117.0%[activator],?,5.5%,7.1%,-9.1%,0.9%,-1.3%,O=C(Nc1nnc(-c2ccncc2)o1)c1ccccc1F
-19.9%,-0.6%,0.8%,-16.4%,-3.9%[60.1 µM],/,?,0.2%,c1ccc(CCNc2nc(-c3ccccn3)cs2)cc1
-11.9%,27.5%,-0.1%,-6.3%,7.7%,-1.3%[59 µM],10.7%,1.6%,CCCNC(=O)CN(c1ccccc1)S(=O)(=O)c1ccc(OC)c(OC)c1
-3.1%,1.4%,4.7%,7.2%,-4.8%,14.1µM*,4.6%,3.5%,Cn1c(-c2cccc(Br)c2)cnc1NCc1cccnc1
-9.5%,22.6%,7.7%,-6.4%,-16.1%,10µM*,-8.9%,-6.7%,Cc1ccc(OCCCCNC(C)(C)C)c([N+](=O)[O-])c1
-8.9%,?,-5.6%,3.5%,-3.0%,35.5µM*,-9.9%,-13.1%,COc1ccccc1C(c1nnnn1Cc1ccccc1)N1CCN(c2nc3ccccc3s2)CC1 (stereo unspecified)
?,10.8%,-1.6%,1.1%,-11.1%,?,0.6%,-11.9%,N#Cc1nc(COc2ccc(F)cc2)oc1N1CCN(Cc2ccccc2)CC1
-7.9%,23.2%,-1.6%,-16.1%,-3.2%,11.2µM*,?,-0.5%,CCOC(=O)C1CCCN(Cc2ccccc2Cl)C1 (stereo unspecified)
6.6%,5.9%,-7.5%,5.2%,-3.0%,-26.1%[2.33 µM],-16.2%,2.2%,CCOC(=O)C1CCN(Cc2cn[nH]c2-c2ccc(C)cc2)CC1
-1.1%,?,3.2%,16.0%,-11.2%,-8.5%,-4.7%,-1.7%,Cc1cc(-c2c(C)[nH]n(-c3ccccc3)c2=O)n[nH]1
-9.3%,10.4%,?,11.3%,7.0%,24.0%[0.501 µM],-11.3%,-2.0%,Cc1ccc(Nc2ncnc(N)n2)cc1C
1.8%,26.7%,-1.9%,22.0%,-8.4%,11.2µM*,-9.5%,-1.9%,COC(=O)C1=NN(c2ccc(C)cc2)C2(S1)SC(C(C)=O)=C(C)N2c1ccccc1 (stereo unspecified)
-20.0%,-7.3%,/,?,-8.4%,?,-13.7%,-6.3%,CCCN(CCC)c1ccc(C2N=C(N)Nc3nc4ccccc4n32)cc1 (stereo unspecified)
